ClpP mod – qHTS Assay for Activators of ClpP. purified B. subtilis ClpP, FRET peptide cleavage, 20 min. Potency, µM (doses to about 57.5 µM), without a hit: top-dose activity change, negative = active. ATP-dependent Clp protease proteolytic subunit (Bacillus subtilis (strain 168)), P80244. actives 1.9% (n = 340,000); active = well fitted falling curve with a large enough effect; inconclusive = small, poorly fitted or top-dose-only effect; inactive = no such curve, though single readings can be large or run the other way; note: the source files actives as falling curves though it sought activators and does not explain the sign; nearly all actives have a fitted effect of over 65% in size; many hits overshoot -100%
Target sequence (P80244 whole entry, looked up): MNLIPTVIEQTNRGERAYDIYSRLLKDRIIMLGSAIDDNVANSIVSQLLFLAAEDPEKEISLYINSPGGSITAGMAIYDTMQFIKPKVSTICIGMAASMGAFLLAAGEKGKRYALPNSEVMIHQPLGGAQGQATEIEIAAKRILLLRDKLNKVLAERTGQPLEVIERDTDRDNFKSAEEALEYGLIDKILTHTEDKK
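Buffer: 100 mM Tris/HCl pH8, 100 mM KCl, 0.05% low protease BSA, 2.5% glycerol, 0.01% Tween-20. ClpP 10 microg/mL final; 20 min RT; delta FRET normalized to ADEP and DMSO controls.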
Starred values were filed as active, the others as inactive; ? = inconclusive. Potency is the fitted concentration of half-maximal effect. This is a subset; the hit share may differ from the screen's.

molecule | ClpP mod
CCN(CC)CCCNC(=O)c1c(C)oc2ncnc(N3CCOCC3)c12 | -0.1%
O=C(c1ccccc1)N1CCCC(c2nc3c(nnn3Cc3ccc(F)cc3F)c(=O)[nH]2)C1 (stereo unspecified) | -2.0%
CCc1nnc(SCc2c(F)cccc2Cl)c2cc3sccc3n12 | 5.3%
CC(=O)c1ccc(NC(=O)c2nc3nc(C)cc(C(F)F)n3n2)cc1 | -0.4%
Cc1cccn2c(=O)c3cc(C(=O)Nc4ccc(Cl)c(Cl)c4)sc3nc12 | -1.9%
Cc1ccc(-c2cc3ncc(C(=O)c4cc(Cl)c(C)cc4O)cn3n2)cc1 | -1.3%
CCOC(=O)c1cccc(NC(=O)c2cc(S(=O)(=O)N3CCCCCC3)cn2C)c1 | -16%
Cc1ccc(-c2nnc3ccccc3c2C(=O)Nc2cccc(C(F)(F)F)c2)cc1 | -1.2%
Cn1c(=O)n(CC(=O)O)c(=O)c2c1nc1n2CCCN1c1ccc(Cl)cc1 | -6.2%
CCCN(CCC)CCNC(=O)Cn1cnc2sc(C)c(S(=O)(=O)N3CCN(c4ccccc4OC)CC3)c2c1=O | -3.8%
Cc1ccc(/C=C/c2onc(C)c2S(=O)(=O)N2CCC(C(=O)Nc3ccc(Br)c(C)c3)CC2)cc1 | -3.0%
CCn1ccc2cc(S(=O)(=O)N3CCCN(C(=O)Nc4cc(Cl)ccc4C)CC3)ccc21 | -4.5%
CCn1c(C(=O)Nc2ccc(C)cc2C)cc2sc(Cl)cc21 | ?
COc1ccc(-n2ncc(C(=O)NCc3ccco3)c2C2CCN(C(=O)OC(C)(C)C)CC2)cc1 | 1.0%
Cc1cccc(NC(=O)CSc2nccn2-c2cccc(Cl)c2)c1C | -0.2%
Cc1ccc(C)c(C(=O)N2CCC(c3nc4c(nnn4Cc4ccccc4)c(=O)[nH]3)CC2)c1 | 2.1%
Cc1ccc(N(C)C(=O)Cn2cc(S(=O)(=O)N3CCCC3)c(S(=O)(=O)N3CCCC3)c2)cc1 | -0.7%
COCCNc1cc(N2CCN(C3CCCCC3)CC2)c2noc3c2c1C(=O)c1ccccc1-3 | 1.3%
CCc1nn(CC(=O)N2CCCCC2)c(=O)c2cc3sccc3n12 | -22%
CCOc1ccc(S(=O)(=O)N(C(=O)c2ccncc2)c2ccc3oc(C)c(C(=O)OC)c3c2)cc1 | 1.7%
CCOC(=O)C1CCN(C(=O)CSc2c3c(nc4ccc(Cl)cc24)CCCC3)CC1 | -1.7%
Cc1ccc(C)c(N2C(=O)N(Cc3ccccc3C)c3ccccc3S2(=O)=O)c1 | -4.2%
Cc1nc2nc(NC(=O)C(C)(C)C)[nH]n2c(=O)c1Cc1ccccc1 | -1.2%
CCN(CC)c1ccc(-n2nc3cc(C)c(NC(=O)c4ccccc4F)cc3n2)cc1 | -17%
O=C(c1ccc2c(c1)N(Cc1ccc(F)cc1)C(=O)c1ccccc1S2(=O)=O)N1CCCCC1 | -3.9%
CCS(=O)(=O)c1oc(-c2ccc(F)cc2)nc1S(=O)(=O)c1ccccc1 | -15%
O=C(CSc1nc(-c2ccccc2)[nH]c1-c1ccccc1)Nc1ccc2c(c1)OCCO2 | -17%
COC(=O)c1ccc(Cl)cc1NC(=O)N1CCCn2nc(C)cc21 | -15%
COc1ccc(-c2nnc(SCC(=O)N(C)Cc3ccccc3)o2)cc1OC | -3.5%
CCOc1ccc(NC(=O)Cn2c3ncccc3c(=O)n2-c2ccc(CC)cc2)cc1 | 4.3%
CC(C)c1ccc2occ(CC(=O)N(Cc3ccc(F)cc3)C3CCS(=O)(=O)C3)c2c1 (stereo unspecified) | -5.8%
O=C(NCCc1nc2ccccc2n1CCCOc1ccccc1)C1CCCCC1 | -0.3%
O=C(CC1N=C2c3ccccc3N=C(SCc3cccc(F)c3)N2C1=O)NC1CCCCC1 (stereo unspecified) | 0.4%
CCOc1ccc(NC(=O)c2ccc(F)c(S(=O)(=O)N(CC)Cc3ccccc3)c2)cc1 | -3.8%
Cc1ccc(-c2nc(S(=O)(=O)c3ccc(C)cc3)c(SCC(=O)Nc3ccc(F)cc3)o2)cc1 | 0.5%
COc1ccc(-c2nnc(SCC(=O)N(C)C3CCCCC3)o2)cc1OC | 1.5%
Cc1ccc2c(c1)N(C(=O)CCC(=O)NCc1cccs1)CC(C)O2 (stereo unspecified) | 0.3%
Cc1c(C)n(Cc2ccccc2)c2ccc(C(=O)NC(C)c3ccccc3)cc12 (stereo unspecified) | ?
CCN1C(=O)c2ccccc2S(=O)(=O)c2ccc(C(=O)NCc3ccc(F)cc3)cc21 | 1.7%
C[N+]1(CC(=O)c2ccc(O)c(O)c2)CCOCC1 | -3.0%
c1ccc(Nc2nc(Nc3ccccc3)nc(-n3cccn3)n2)cc1 | -12%
CCN(CC)c1ccc(NS(=O)(=O)c2cc3[nH]c(=O)c(=O)[nH]c3cc2C)c(C)c1 | -3.2%
CC(=O)CSc1nnc2[nH]c(=O)cc(N)n12 | 0.1%
Cc1ccn2c(=O)c(C(=O)NCc3ccccc3Cl)c(O)nc2c1 | -3.5%
Cc1ccc(N2CCN(C(=O)c3c(C)oc4ncnc(N5CCCCC5)c34)CC2)c(C)c1 | -1.8%
COc1ccccc1N1CCN(C(=O)CSc2n[nH]c(-c3ccccc3)n2)CC1 | -1.2%
Cc1nc(-c2ccccc2)sc1-c1ccc(SCC(=O)NCc2ccccc2)nn1 | 110%
O=C(Cc1ccc(OCc2ccccc2)cc1)NO | 0.9%
O=C(C[N+]12CCCc3cccc(c31)CCC2)c1ccc(Cl)c2ccccc12 | -2.3%
Nc1c(C(=O)c2ccc3c(c2)OCO3)sc(Nc2ccccc2F)c1S(=O)(=O)c1ccccc1 | -3.6%

Some of the entries so far, as labelled records.
Cc1ccn2c(=O)c(C(=O)NCc3ccccc3Cl)c(O)nc2c1
  ClpP mod = -3.5%

Cc1ccc(N2CCN(C(=O)c3c(C)oc4ncnc(N5CCCCC5)c34)CC2)c(C)c1
  ClpP mod = -1.8%

COc1ccccc1N1CCN(C(=O)CSc2n[nH]c(-c3ccccc3)n2)CC1
  ClpP mod = -1.2%

Later entries.
molecule	ClpP mod
COc1ccc2c(CNCc3cccs3)c(C(=O)O)n(Cc3cccc(F)c3)c2c1	-20%
CCOC(=O)Cn1cnc2c(cnn2-c2ccc(C)c(C)c2)c1=O	-8.7%
Cc1cc(C)cc(NC(=O)c2c(C)oc3nc(C)nc(N4CCCC4)c23)c1	-0.3%
CCOC(=O)c1c(C)n(S(=O)(=O)c2ccc(C)cc2)c2ccc(NS(=O)(=O)c3ccc(C)cc3)cc12	0.7%
Cc1ccc(CCNC(=O)c2oc(=O)c3ccccc3c2-c2ccc(C)cc2)cc1	-1.3%
Cc1ccccc1NC(=O)C1CCC(CNS(=O)(=O)c2ccc3c(c2)C(C)(C)C(=O)N3C)CC1 (stereo unspecified)	0.5%
S=Cc1nc2ccccc2[nH]1	-7.4%
COC(=O)c1ccc(Cn2c(SCc3ccccc3)nc3ccncc32)cc1	-6.1%
Cc1ccccc1OCC(=O)N(Cc1ccc(C(C)C)cc1)C1CCS(=O)(=O)C1 (stereo unspecified)	0.4%
Cc1cccc(Cn2c(=O)n(CC3CCC(C(=O)NC(C)C)CC3)c(=O)c3sccc32)c1 (stereo unspecified)	0.6%
Fc1ccc(-c2nc(-c3cccs3)c(-c3cccs3)[nH]2)cc1	?
CCCN(CCC)CCNC(=O)c1cc(-c2ccc(Br)s2)nc2ccccc12	-17%
CC(=O)c1cccc(NS(=O)(=O)c2ccc3[nH]c4c(c3c2)CCCCC4)c1	-11%
COc1cccc(N2CCN(C(=O)CCc3c(C)nc4c(c3C)c(=O)n(C)c(=O)n4C)CC2)c1	-14%
COc1ccc(-n2nc(C(=O)N(C)c3cc(C)ccc3C)c3c4ccccc4n(C)c3c2=O)cc1Cl	-0.7%
CC(C)OCCCNC(=O)CCCn1c(SCC(=O)c2ccc(F)cc2)nc2c(sc3ccccc32)c1=O	-23%
Cc1ccc(C(=O)Nc2c(C(=O)NCc3ccc(Cl)cc3)sc3nc(C)cc(C)c23)cc1	?
CC(C)c1ccc(NC(=O)C(Cc2ccccc2)n2cccc2)cc1 (stereo unspecified)	-3.1%
CN(CC(=O)NCc1ccc(F)cc1)S(=O)(=O)c1ccc2[nH]c3c(c2c1)CCCC3	?
CCCn1c(CCC(=O)Nc2cc(Cl)c(OC)cc2OC)nc2cccnc21	0.9%
COc1ccccc1NC(=O)CCn1nc(-c2ccccc2)c2ccccc2c1=O	-22%
Cc1cc(Cl)ccc1NC(=O)C1CCCN1S(=O)(=O)c1ccc2c(c1)CCCC(=O)N2 (stereo unspecified)	-0.5%
CCOC(=O)c1cccc(Nc2c3c(nc4ccccc24)CCC3)c1	-12%
CCOC(=O)CC(NC(=O)CCc1c(C)nc2c(-c3ccccc3)c(C)nn2c1C)c1ccc(C)cc1 (stereo unspecified)	0.4%
COc1ccc(-c2n[nH]c3c2C(c2ccc(O)cc2)N(c2ccc(Br)cc2)C3=O)cc1 (stereo unspecified)	0.1%
Oc1c(Br)cc(Br)cc1-c1nc2ccccc2s1	-4.7%
COc1ccc(CNc2nc(-c3ccco3)nn2C(=O)c2ccccc2C)cc1	-12%
O=C(CN1C(=O)CCc2cc(S(=O)(=O)N3CCOCC3)ccc21)NCc1ccccc1	-0.6%
Cc1ccnc2ccc(I)cc12	0.6%
OC(CBr)C[n+]1cc(Br)cc2ccccc21 (stereo unspecified)	-12%

Of the compounds above, these contain a tert-butyl group:
molecule	ClpP mod
COc1ccc(-n2ncc(C(=O)NCc3ccco3)c2C2CCN(C(=O)OC(C)(C)C)CC2)cc1	1.0%
Cc1nc2nc(NC(=O)C(C)(C)C)[nH]n2c(=O)c1Cc1ccccc1	-1.2%

The main list resumes; the 4 compounds before the break are reprinted first.
molecule	ClpP mod
COc1ccc(CNc2nc(-c3ccco3)nn2C(=O)c2ccccc2C)cc1	-12%
O=C(CN1C(=O)CCc2cc(S(=O)(=O)N3CCOCC3)ccc21)NCc1ccccc1	-0.6%
Cc1ccnc2ccc(I)cc12	0.6%
OC(CBr)C[n+]1cc(Br)cc2ccccc21 (stereo unspecified)	-12%
COc1ccc(NC(=O)c2sc3nc4c(cc3c2N)CCCCCC4)cc1	3.8%
COc1ccc(CCNS(=O)(=O)c2cc(-c3cc(C)no3)ccc2OC)cc1OC	0.9%
CC(Oc1ccccc1)C(=O)N[C@@H]1C(=O)N2C(C(=O)O)C(C)(C)S[C@H]12 (stereo partly specified)	-0.1%
COc1ccc(S(=O)(=O)N(CC(=O)NC(C)c2ccccc2)c2ccc(C)cc2)cc1OC (stereo unspecified)	-1.5%
COc1cc(C2C(C(=O)Nc3ccc(Cl)cc3)=C(C)Nc3nc(SC)nn32)cc(OC)c1OC (stereo unspecified)	-0.7%
COc1cc(OC)cc(C(=O)Nc2ccc3oc(-c4cccc5c(Br)cccc45)nc3c2)c1	-18%
Clc1ccc(CSc2ccc(-c3cccs3)nn2)cc1	1.7%
COC(=O)c1sccc1S(=O)(=O)N(CC(=O)Nc1ccccc1F)c1ccccc1	-1.4%
Fc1ccc(-c2cc(-c3nc(-c4cccc(Cl)c4)no3)[nH]n2)cc1	-0.3%
Cc1ccc(-n2nc(C)c3c(C(=O)Nc4ccccc4C(F)(F)F)cc(C)nc32)cc1	9.8%
Cc1oc2ncn(CC(C)C)c(=O)c2c1C(=O)NCCCN(Cc1ccccc1)C(C)C	-2.2%
Cc1ccc(C(=O)NCC(c2ccc3c(c2)OCO3)N2CCOCC2)cc1C (stereo unspecified)	-0.7%
COc1cc(S(=O)(=O)O)c(C)cc1N=Nc1c(O)ccc2cc(S(=O)(=O)O)ccc12	0.3%
COc1ccc(-c2nc(SCC(=O)NCC3CCCO3)c(-c3ccc(Cl)cc3)[nH]2)cc1 (stereo unspecified)	-25%
CCN(CC)CCOC(=O)c1ccc(NC(=O)Cn2ncc3c2-c2cc(C)ccc2OC3)cc1	2.4%
Cc1ccc(NC(=O)Cn2c(=O)c(C(F)(F)F)nc3ccccc32)c(C)c1	-1.9%
CCN1CCc2c(sc(NC(=O)c3ccc(S(=O)(=O)N4CCCC(C)C4)cc3)c2C(=O)OC)C1 (stereo unspecified)	139%
COc1cc(NC(=O)c2cc(Cl)c(OC)c(Cl)c2)ccc1NC(=O)c1cc2ccccc2o1	-6.7%
Cc1c(C(=O)NCCN(C)C)oc2c1-c1nn(Cc3ccccc3Cl)cc1CC2	?
O=C(CSc1nnc2scc(-c3ccc(Cl)cc3)n12)Nc1ccc(F)cc1	1.9%
O=C(Nc1c(C(=O)Nc2cccc(F)c2)oc2ccccc12)c1cc2ccccc2o1	3.0%
Cc1ccc(CNC(=O)c2nnn(CC(=O)Nc3cc(C)ccc3C)c2N)cc1	-1.7%
CC1=C(C(=O)Nc2ccccc2)C(c2ccc(C(=O)O)cc2)n2ncnc2N1 (stereo unspecified)	-1.1%
COc1ccc(CCNC(=O)c2cc3c(s2)-c2ccccc2OC3)cc1OC	4.2%
Cc1cc(C)cc(NC(=O)c2cnc3sc(N4CCCC4)nn3c2=O)c1	-2.3%
CCOC(=O)C1CCN(C(=O)Cn2nc(C)n3c(cc4sccc43)c2=O)CC1	-18%
CCc1nnc(NC(=O)CSc2nc3c([nH]c4ccccc43)c(=O)n2-c2ccc(C)cc2)s1	-9.8%
CCN(c1ccccc1)S(=O)(=O)c1ccc(NC(=O)c2cc(=O)c3cc(C)ccc3o2)cc1	0.2%
COc1ccccc1NC(=O)CCn1cnc2onc(-c3ccc(F)cc3)c2c1=O	-2.2%
